High-throughput results as filed in PubChem.
PK Bst = pyruvate kinase (B. stearothermophilus) modulation; partly purified Bacillus stearothermophilus pyruvate kinase, luminescence ATP production; ribose 5-phosphate activator present at AC10; Potency, µM; 1.2% of 51,000 active; AID 361; in the data active means potency below about 11 µM; inconclusive means mostly about 12 µM to 25 µM; inactive means weaker than that;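 the screen sought inhibitors and activators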;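 note: potency is the fitted concentration of half-maximal effect; scaled between full activation by ribose 5 phosphate and full inhibition by luteolin; about four in five hits inhibit and the cells do not say which; series up to 57 µM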
YjeE inh = displaces an ADP probe from E. coli YjeE (TsaE); Potency, µM; P0AF67; purified YjeE, fluorescence polarisation of a bound ADP probe; 0.05% of 71,000 active; active = well fitted falling curve; inconclusive = weaker or top-dose-only fall, or a rising curve; inactive = flat or poorly fitted curve;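 note: top concentration of the series not given in the record; excess ADP was the control for the full effect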
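Purified YjeE (10 uM) with BODIPY Texas Red-labeled ADP probe (2 uM); compounds pin-transferred, 15 min at room temperature. Binding inhibition read as decreased fluorescence polarization; ADP titration as control.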
An asterisk follows results filed as active; i = inactive; ? = inconclusive; . = no result given. Not all compounds are listed; count on the stated rates, not on these rows.

SMILES	PK Bst	YjeE inh
CCCOc1cc(C)c(S(=O)(=O)n2ccc(C)n2)cc1C	>57	i
CCOC(=O)N1CCC(NC(=O)c2cc(C(=O)Nc3ccc(F)cc3F)ccc2CO)CC1	.	i
CCN1C(=O)c2ccc(-c3nc4ccccc4c(=O)o3)cc2C1=O	.	i
COCCNC(=O)c1cc2c(=O)n3cccc(C)c3nc2n(Cc2ccncc2)c1=N	>57	i
CN(CCCNC(=O)c1ccc(N2CCCC2=O)cc1)c1ccccc1	>57	i
CCOC(=O)C1CCN(C(=O)COc2cccc(C)c2)CC1	>57	i
Cc1nnc(NC(=O)C2CCCN(S(=O)(=O)Cc3ccccc3)C2)s1 (configuration not stated)	>57	i
O=C(NCCN1CCc2ccccc2C1)C1CC(=O)N(C2CCCC2)C1 (configuration not stated)	>57	i
CC(=O)N1CCN=C1SCc1c(F)cccc1Cl	.	i
O=C1CC(N2CCC(c3nc4ccccc4[nH]3)CC2)C(=O)N1Cc1ccccc1 (configuration not stated)	>57	i
O=C(/C=C\c1ccc(O)c(O)c1)O[C@H]1C[C@@](O)(C(=O)O)C[C@H](O)[C@@H]1O	.	i
c1ccc(CCN2CCN=C2Cc2ccccc2)cc1	.	i
Cc1csc(N(C)C(=O)CSc2nnc(COc3ccccc3C)o2)n1	>57	i
CNC(=O)CSc1nnc(-c2ccco2)n1-c1ccccc1OC	>57	i
c1ccc2c(c1)OCC(c1nn3c(Cn4nnc5ccccc54)nnc3s1)O2 (configuration not stated)	>57	i
Cc1cc(C(=O)CSc2nnnn2-c2ccc(O)cc2)c(C)n1Cc1ccc2c(c1)OCO2	>57	i
COc1ccc(NC(=O)N[C@@H](CCSC)C(=O)O)cc1Cl	>57	i
Cc1ccc(-n2c(SCC(N)=O)nc3c([nH]c4ccccc43)c2=O)cc1	.	i
COCCNC(=O)Cn1cnc2sc(C)c(S(=O)(=O)N3CCC(C)CC3)c2c1=O	>57	i
c1ccc(-c2nc(NCc3ccco3)c3ccccc3n2)nc1	.	i
Brc1cc2[nH]cnc2c2ccccc12	>57	i
O=c1c2c(nc3nc(COc4ccccc4)[nH]n13)CCC2	>57	i
Cc1ccc(-c2noc(C3CCN(S(=O)(=O)c4ccc5c(c4)OCCO5)CC3)n2)o1	>57	i
Cn1nc(-c2ccc(C(=O)N3CCN(c4ccccc4)CC3)cc2)c2ccccc2c1=O	>57	i
O=C(NC(C(=O)c1ccccc1)n1cnccc1=O)c1ccccc1 (configuration not stated)	.	i

Entries of single compounds, quoted from the list.
`Cc1ccc(-c2noc(C3CCN(S(=O)(=O)c4ccc5c(c4)OCCO5)CC3)n2)o1` in the list: PK Bst = >57; YjeE inh = i
`Cn1nc(-c2ccc(C(=O)N3CCN(c4ccccc4)CC3)cc2)c2ccccc2c1=O` in the list: PK Bst = >57; YjeE inh = i
`Cc1ccc(-n2c(SCC(N)=O)nc3c([nH]c4ccccc43)c2=O)cc1` in the list: PK Bst = .; YjeE inh = i

(further entries)
SMILES	PK Bst	YjeE inh
CC1CCCN(C(=O)Cn2nnc(-c3cccnc3)n2)C1 (configuration not stated)	>57	i
Cc1cc(C)c2c3c(sc2n1)C1(CCSCC1)C(C#N)=C(N)O3	.	i
Cc1ccc(S(=O)(=O)N(C)CC(=O)NC2CCCC2)cc1	>57	i
O=C(CC1(O)C(=O)N(CN2CCOCC2)c2ccccc21)c1ccccc1 (configuration not stated)	.	i
CCC(=O)N1CCc2cc(Br)cc(S(=O)(=O)NCC3CCCO3)c21 (configuration not stated)	>57	i
COC(=O)c1ccc(C)c(NC(=O)C2COc3ccccc3O2)c1 (configuration not stated)	>57	i
O=c1c(CCc2ccccc2)nc2cncnc2n1C1CC1	.	i
Cc1occc1-c1nnc(SCC(=O)c2ccc(Cl)cc2)n1CC1CCCO1 (configuration not stated)	>57	i
COc1ccc(-c2cc(C(=O)Nc3c(C)nn(Cc4ccccc4)c3C)no2)cc1	>57	i
COC(=O)C(C)NC(=O)C(C)NC(=O)OCc1ccccc1 (configuration not stated)	>57	i
CCOC(=O)c1[nH]c2ccc(OC)cc2c1NC(C)=O	>57	i
COC(=O)CC(=O)Cc1nc(N)nc(Nc2ccc(C)c(C)c2)n1	i	.
CCOc1ccc(NC(=O)Nc2ccc(N(C)C(C)=O)cc2)cc1	>57	i
CCOC(=O)c1c(-c2ccccc2)[nH]c2ccc(O)cc12	.	i
Cc1ccc(C)n1-c1ccc(-c2nnco2)cc1	>57	i
Cn1c(/C=C/N2CCOCC2)c(C(=O)c2ccc(Br)cc2)c(=O)n(C)c1=O	>57	i
O=C(Nc1ccc2c(c1)OCO2)c1ccc(S(=O)(=O)NCC2CCCO2)cc1 (configuration not stated)	>57	i
CC(C)(NC(=O)N1CCCC1)c1cccc(C(C)(C)NC(=O)N2CCCC2)c1	.	i
CC(C)NC(=O)CN(c1cccc(Br)c1)S(C)(=O)=O	>57	i
O=C(CSc1nnc(-c2cccs2)n1Cc1ccco1)Nc1ccc2c(c1)OCO2	>57	i
c1ccc(CCn2nnnc2C(c2cccnc2)N2CCN(c3nc4ccccc4s3)CC2)cc1 (configuration not stated)	>57	i
c1ccc(-c2nnnn2CCOCCn2nnnc2-c2ccccc2)cc1	>57	i
COCCN(CC(=O)Nc1ccccc1)S(=O)(=O)c1ccc(S(=O)(=O)N2CCCC2)cc1	>57	i
O=c1c2c3nc4ccccc4nc3n(-c3ccc4c(c3)OCCO4)c2ncn1C1CCCC1	>57	?
CCNc1ncc2nc(-c3cn(C)c4ccccc34)c(=O)n(Cc3cccc(OC)c3)c2n1	.	i

More results follow.
SMILES	PK Bst	YjeE inh
COC(=O)c1ccc(NC(=O)NS(=O)(=O)c2ccc(C)cc2)cc1	.	i
Cc1nc(N2CCc3ccccc3C2)[nH]c(=O)c1CCC(C)C	>57	i
CCOC(=O)C1=C(C)NC(=O)NC1c1ccc(OCCO)c(OC)c1 (configuration not stated)	.	i
OCc1n[nH]c(CO)n1	>57	i
O=C(Nc1cc2nn(-c3ccccc3)nc2cc1Cl)c1ccco1	>57	i
COC(=O)Nc1nnc(Cc2ccc(OC)cc2)s1	>57	i
Cn1nnnc1SCC(=O)c1c(N)n(C)c(=O)n(C)c1=O	>57	i
CCOc1ccccc1-n1c(COc2ccc(C)cc2)nnc1SCC(N)=O	>57	i
CC(C(=O)OCc1nnc(-c2ccccc2)o1)N1C(=O)c2ccccc2C1=O (configuration not stated)	>57	i
COc1ccc(N2CCN(C(=O)Cn3nnc(-c4cccs4)n3)CC2)cc1	>57	i
COc1ccc(C2/C(=C(\O)c3cc(C)ccc3C)C(=O)C(=O)N2CCN(C)C)cc1OC (configuration not stated)	>57	i
CN(CCCNC(=O)CN1C(=O)CC(C)(C)S(=O)(=O)c2ccccc21)C1CCCCC1	>57	i
O=C(NCc1ccc(N2CCCC2=O)cc1)c1cn(CCc2ccccc2)nn1	>57	i
COc1ccc(OCC(=O)Nc2ccccc2C(=O)N2CCCC2)cc1	>57	i
Cn1[nH]c(=O)c2ccccc2c1=O	>57	i
Nn1c(SCC(=O)Nc2ccc(F)cc2F)nnc1-c1cccnc1	>57	i
Cc1c(C(=O)OCC2CCCO2)[nH]c2c1C(=O)CC(c1ccc(N(C)C)cc1)C2 (configuration not stated)	.	i
CCCCCn1c(CN2CC(C)OC(C)C2)nc2c1c(=O)n(C)c(=O)n2C (configuration not stated)	.	i
O=C(O)CCCCC1CCSS1 (configuration not stated)	.	i
Nc1c(C(=O)OCC2CCCO2)c2nc3ccccc3nc2n1C1CCCCC1 (configuration not stated)	8.9*	i
O=C(NC1CCCC1)C1CCCN1S(=O)(=O)c1cccc2cccnc12 (configuration not stated)	.	i
CC(C)(C)NC(=O)CN(C(=O)C1CSC(=O)C1)c1ccc2c(c1)OCCO2 (configuration not stated)	>57	i
O=C(Nc1cc(Cl)ccc1N1CCOCC1)c1cnccn1	>57	i
CC(=O)N(Cc1ccccc1)c1ncc2c(n1)c(=O)c(C#N)c1ccccn12	>57	i
COC(=O)c1nc(N)sc1-c1ccccc1	>57	i

Continuation:
SMILES	PK Bst	YjeE inh
Cc1cc(NCCOCCO)n2ncc(-c3ccc(Cl)cc3)c2n1	6.7*	i
O=C(CN1CCCCC1)Nc1ccccc1NC(=O)CN1CCCCC1	>57	i
CC(C)CN1CCCC2(CCN(S(=O)(=O)c3ccccc3)CC2)C1	.	i
Cc1[nH]nc2c1C(c1ccccn1)N(c1ccc(Br)cc1)C2=O (configuration not stated)	>57	i
Cc1cc(C)c2c(CN3CCN(C/C=C/c4ccccc4)CC3)cc(=O)oc2c1	>57	i
Cc1cccc(-c2noc(CN(C(=O)c3c(-c4ccccc4Cl)noc3C)C(C)C)n2)c1	.	i
Cn1ncc2c(Nc3ccc(-c4ccccc4)cc3)ncnc21	.	i
O=C(CSc1ncccn1)NCc1ccc(F)cc1	>57	i
CCOC(=O)C1CCN(C(=O)CCCCn2c(=O)[nH]c3ccccc3c2=O)CC1	>57	i
O=C(Nc1nn[nH]n1)c1cccc(Oc2ccccc2)c1	>57	i
COCCNC(=O)CN(C(=O)Cn1nnc2ccccc21)c1ccccc1	>57	i
CC(C)CC(=O)N1CCN(S(=O)(=O)c2ccc(F)cc2)CC1	>57	i
Nc1c[n+](N2CCOCC2)no1	.	i
CN(C(=O)c1cccc(C#N)c1)c1nnc(C2CCCO2)s1 (configuration not stated)	>57	i
CC1=CC(C)(C)Nc2cc(C)c(C)cc21	>57	i
Cn1c(=O)c2c(nc(NCc3ccco3)n2CCc2ccccc2)n(C)c1=O	>26	.
CCc1ccccc1	.	i
CN1CCc2nc(N)nc(-c3nc(N)nc4c3CN(C)CC4)c2C1	.	i
CCn1c(=O)n(CC)c2cc(S(=O)(=O)N3CCOCC3)ccc21	>57	i
Clc1ccc(Cc2nn3c(-c4ccncc4)nnc3s2)cc1	>57	i
COc1ccc(NC(=O)c2cccc(NC(=O)C3C4CC5OC(=O)C3C5C4)c2)c(OC)c1 (configuration not stated)	>57	i
Cc1nc2ccccc2n1CC(=O)N1CC(=O)Nc2ccccc21	>57	i
Cc1noc(C)c1-c1cncnc1N(C)Cc1ccco1	.	i
Cc1nc(SCC(=O)Nc2ccc(F)cc2)c2oc3ccccc3c2n1	>57	i
C=CCOc1cccc(C2C(C(=O)c3ccc(C)o3)=C(O)C(=O)N2CCN(C)C)c1 (configuration not stated)	>57	i

An excerpt of these results, with each value named.
> CCOC(=O)C1=C(C)NC(=O)NC1c1ccc(OCCO)c(OC)c1 (configuration not stated)
  PK Bst: .
  YjeE inh: i

> OCc1n[nH]c(CO)n1
  PK Bst: >57
  YjeE inh: i

> O=C(Nc1cc2nn(-c3ccccc3)nc2cc1Cl)c1ccco1
  PK Bst: >57
  YjeE inh: i

> COC(=O)Nc1nnc(Cc2ccc(OC)cc2)s1
  PK Bst: >57
  YjeE inh: i

Next results.
SMILES	PK Bst	YjeE inh
CCCC(=O)Nc1nn(CCC)c2nc3ccccc3cc12	>26	.
Cc1cccc(N2CCN(C(=O)CCNS(=O)(=O)c3ccc4c(c3)CCC(=O)N4)CC2)c1C	>57	i
CCOC(=O)c1sc(NC(=O)COC(=O)Cn2cnc3ccccc32)c(C(=O)OCC)c1C	>57	i
CC(c1ccccc1)n1cc(C(=O)NCCN2CCOCC2)nn1 (configuration not stated)	>57	i
COCCCNC(CC(=O)Nc1ccccc1C(=O)OC)C(=O)O (configuration not stated)	>57	i
Cc1c(Cl)cccc1N1CC(C(=O)Nc2nccs2)CC1=O (configuration not stated)	.	i
CC(C(=O)N1CCN(C)CC1)N1C(=O)c2ccccc2C1=O (configuration not stated)	>57	i
CCOC(=O)N1CCC(NC(=O)C2CCN(S(=O)(=O)c3c(C)noc3C)CC2)CC1	>57	i
CCOC(=O)C1Cc2cc3c(cc2C1=O)CC(C(=O)OCC)C3=O (configuration not stated)	>57	?
COC(=O)c1cc(=O)nc2scc(C)n12	.	i
CCC(CC)C(=O)Nc1cccc(C(=O)N2CCOCC2)c1	>57	i
CS(=O)(=O)N1CCc2cc(S(=O)(=O)Nc3ccc4c(c3)OCCO4)ccc21	>57	i
O=C(O)COc1ccc2c(c1)OCCO2	.	i
c1ccc2[nH]c(SN3CCOCC3)nc2c1	>57	?
CCOC(=O)c1ccc(NC2c3ncccc3C(=O)N2Cc2ccc(F)cc2)cc1 (configuration not stated)	>57	i
COC(=O)c1cc(S(=O)(=O)N2CCC(C)CC2)ccc1F	>57	i
CCN(CCCNC(=O)C1CCN(S(=O)(=O)c2cnc[nH]2)CC1)c1ccccc1	>57	i
CCC(C)NC(=O)C(NS(=O)(=O)c1ccc2c(c1)c(=O)n(C)c(=O)n2C)c1ccccc1 (configuration not stated)	.	i
CCOc1ccc(OCC)c(NC(=O)C2C3C=CC(O3)C2C(=O)NCc2ccco2)c1 (configuration not stated)	>57	i
O=c1ccnc(SCc2ccc(Cl)cc2)[nH]1	.	i
CCCN(c1ccc(C(C)C)cc1)S(=O)(=O)c1c(C)noc1C	>57	i
CCOC(=O)C1=C(N)OC2=C(C(=O)CCC2)C1c1cccnc1 (configuration not stated)	>57	i
C=CCn1c(=O)c(C(=O)NCCc2ccccc2)c(O)c2ccccc21	.	i
Cc1noc(C)c1CSc1cc(C)c2ccccc2n1	>57	i
CCOC(=O)c1nnn(-c2nonc2N)c1-c1ccccc1	.	i
COc1ccc(OC)c(NS(=O)(=O)c2ccc3c(c2)CCC(=O)N3)c1	>57	i
COc1ccc(-n2c(Cc3cccn3C)nnc2SCC(=O)N2CCC(C)CC2)cc1	.	i
O=C(CCCc1nc(-c2ccccc2)no1)Nc1cccnc1	>57	i
